Cruzain noTriton = cruzain (T. cruzi) inhibition without detergent; purified cruzain, Z-FR-AMC fluorescence, no detergent; 200,000 compounds, 2.3% hits; Potency, µM, without a hit: max response, negative = inhibition, most hits filed as inhibitors; P25779; active means well fitted curve in the direction sought with a large enough effect; inconclusive means small, poorly fitted or top-dose-only effect, or another doubt; inactive means no such curve, though single readings can be large; an effect the other way counts as inactive or inconclusive;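 further: plate controls were enzyme without inhibitor for no effect and buffer without enzyme for full effect; nearly all actives have a fitted effect of over 40% in size; top concentration of the series not given in the record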
Target sequence (P25779 123-467 limits assumed): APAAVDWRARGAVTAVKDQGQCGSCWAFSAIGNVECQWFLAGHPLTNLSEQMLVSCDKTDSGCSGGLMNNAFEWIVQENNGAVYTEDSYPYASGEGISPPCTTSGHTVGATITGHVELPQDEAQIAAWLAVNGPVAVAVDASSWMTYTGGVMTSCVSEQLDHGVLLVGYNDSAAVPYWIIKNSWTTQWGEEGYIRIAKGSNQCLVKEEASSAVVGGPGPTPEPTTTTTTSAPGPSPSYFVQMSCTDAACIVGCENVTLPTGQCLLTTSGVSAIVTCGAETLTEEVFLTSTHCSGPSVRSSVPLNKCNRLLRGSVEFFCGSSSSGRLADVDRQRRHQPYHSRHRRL
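Detergent-free condition (0.00005% Triton X-100) in acetate buffer pH 5.5 with DTT. 1.5 nM enzyme and compound were pre-mixed 15 min, then 2 uM Z-FR-AMC substrate added; reaction progress from fluorescence change between first and third reads (60 s).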
Lassa entry inh = blocks Lassa virus binding to or entry into cells; Lassa virus pseudotype entry inhibition, cell reporter; control for the full effect not named in the record; 300,000 compounds, 1.2% hits; Potency, µM (series often up to 37.9 µM), for inactives: top-dose activity change, negative = inhibition, most hits filed as inhibitors; active means well fitted inhibition curve with a large enough effect; inconclusive means small, poorly fitted or top-dose-only effect, or effect the other way; inactive means flat fitted curve, though single readings scatter; tested in HEK293 cells; further: on the % scale 0 is the no-effect control and ±100 the full control effect; nearly all actives have a fitted effect of over 50% in size; luciferase read-out
RE007 growth inh = less growth of the S. pombe RE007 Vpr strain; S. pombe RE007 Vpr strain, BacTiter-Glo ATP luminescence, 24 h; control for the full effect not named in the record; Potency, µM (titrated, usually from 92.2 µM), inactives show at the highest dose activity change, negative = less growth; 360,000 compounds, 0.21% hits; active = well fitted falling curve with a large enough effect; inconclusive = small, poorly fitted or top-dose-only effect; inactive = no such curve, though single readings can be large or run the other way;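 further: on the % scale 0 is the no-effect control and ±100 the full control effect; nearly all actives have a fitted effect of over 50% in size; the assay follows cell death caused by Vpr and the record does not say whether a fall means rescue or toxicity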
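Fission yeast RE007 carrying one integrated HIV-1 vpr copy, seeded at OD 0.01 in PMG+AL medium with 23 nL pinned compound. Grown 24 h at 30 degrees; viability read by BacTiter-Glo luminescence after 5 min.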
Cruzain Triton = blocks cruzain activity in presence of Triton detergent. P25779. purified cruzain, Z-FR-AMC fluorescence, 0.01% Triton. Potency, µM, for the others: max response, negative = inhibition, usual class: inhibitors. 200,000 compounds, 0.43% hits. AID 1478; active means well fitted curve in the direction sought with a large enough effect; inconclusive means small, poorly fitted or top-dose-only effect, or another doubt; inactive means no such curve, though single readings can be large; an effect the other way counts as inactive or inconclusive;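 further: plate controls were neutral wells for no effect and buffer without enzyme for full effect; nearly all actives have a fitted effect of over 40% in size; top concentration of the series not given in the record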
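Z-FR-AMC hydrolysis (2 uM substrate) by cruzain (1.5 nM) monitored kinetically at ex 360/em 450 nm after 15 min room-temperature compound exposure; 0.01% Triton X-100, pH 5.5, 5 mM DTT.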
2A StopGo = lowers the luciferase signal of an FMDV 2A StopGo reporter; human cells with a luciferase reporter of 2A StopGo recoding; control for the full effect not named in the record; Potency, µM (titrated, usually from 57.9 µM), for the others: at the top dose signal change, negative = less light; 410,000 compounds, 1.2% hits; AID 1159524; active = well fitted falling curve with a large enough effect; inconclusive = small, poorly fitted or top-dose-only effect; inactive = no such curve, though single readings can be large or run the other way; tested in HEK293T cells; further: on the % scale 0 is the no-effect control and ±100 the full control effect; nearly all actives have a fitted effect of over 45% in size; luciferase light after 4 h
MARV entry inh = blocks Marburg virus binding to or entry into cells; Marburg virus pseudotyped entry inhibition, cell reporter; control for the full effect not named in the record; about a third of the inactives were read at about 46 µM; Potency, µM (series often up to 37.8 µM), inactives show top-dose activity change, negative = inhibition, hits mostly inhibitors; 300,000 compounds, 1.8% hits; AID 540276; active = well fitted inhibition curve with a large enough effect; inconclusive = small, poorly fitted or top-dose-only effect, or effect the other way; inactive = flat fitted curve, though single readings scatter; tested in HEK293 cells; about a fifth of its hits are not listed in these tables; further: on the % scale 0 is the no-effect control and ±100 the full control effect; luciferase read-out
SARS PLpro yeast = inhibitors of SARS-CoV papain-like protease in yeast. Potency, µM (series often up to 32.9 µM), without a hit: top-dose activity, positive = growth rescue. S. cerevisiae expressing SARS-CoV PLpro, growth rescue; control for the full effect not named in the record. 330,000 compounds, 0.19% hits; further: 0% is about no effect; nearly all actives have a fitted effect of over 55% in size; growth read by luminescence after 48 h
NS1 function inh = blocks influenza NS1 protein function; 270,000 compounds, 0.4% hits; S. cerevisiae slowed by influenza A NS1, growth recovery by OD600; Potency, µM (top dose mostly 46.1 µM), without a hit: top-dose activity, positive = more growth; further: actives are rising curves; nearly all actives have a fitted effect of over 50% in size
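Recovery from NS1-induced slow growth read by OD600 in budding yeast switched to galactose assay medium (pH 6.0, -URA) at 1:100 dilution. Compound 23 nl per well; the matching strain lacking NS1 serves as control.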
The depositor's hits bear a star; ? = inconclusive; nt = not tested or not shown; & = joins results of further samples; [ ] = dose if it differs, or a comment. Unless noted, the call rests on the fitted dose curve; in most records, active means well fitted rising curve with a large enough effect; inconclusive means small, poorly fitted or top-dose-only effect; inactive means no such curve, though single readings can be large or run the other way. Potency means the concentration at half of the fitted maximal effect.

SMILES	Cruzain noTriton	Lassa entry inh	RE007 growth inh	Cruzain Triton	2A StopGo	MARV entry inh	SARS PLpro yeast	NS1 function inh
O=C(CN1CCN(S(=O)(=O)N2CCCCCC2)CC1)Nc1cc(Cl)ccc1Cl	nt	0%	-3%	nt	-27%	13%[46.1 µM]	2%	2%
CC(=O)c1cc(C#N)c(SCc2ccccc2)nc1C	-6%	?	-19%	-4.0%	19%	?	-7%	-63%
N#Cc1nc(Cc2ccccc2)oc1N1CCCC1	nt	8%[46.1 µM]	7%	nt	26%	4%[46.1 µM]	1%	-6%
COc1cccc(CNC(=O)c2cc(COc3c(F)cccc3F)on2)c1	nt	-7%[46.1 µM]	-19%	nt	32%[activator]	19%[46.1 µM]	-2%	-8%
CCOc1ccc(C(=O)NCc2ccco2)cc1	-8%	-15%	2%	-1.3%	3%	?	4%	-17%
O=C(COc1ccc(-n2ccnc2)cc1)Nc1cccc(Cl)c1	nt	-1%	-13%	nt	?	?	-6%	nt
CCOC(=O)C1=C(N)n2c(s/c(=C\c3ccco3)c2=O)=C(C(=O)OC(C)C)C1c1ccco1 (centres undefined)	10µM*	-17%	-12%	-8.4%	-22%	?	-21%	7%
CCN1CCN(CC(=O)NC2CCCCC2)C(=O)C1=O	-5%	nt	5%	-0.6%	-2%	nt	25%	7%
CCOC(=O)C1CCCN(S(=O)(=O)c2ccc3c(c2)oc(=O)n3C)C1 (centres undefined)	-4%	4%[46.1 µM]	nt	0.1%	-13%	-18%[46.1 µM]	nt	nt
CS(=O)(=O)NN1C(=O)c2ccccc2NC1c1ccccc1O (centres undefined)	nt	1%	-9%	nt	10%	30%[46.1 µM]	1%	nt
COc1cccc(CN2CCN(C(=O)c3cccc4ccccc34)CC2)c1OC	20%	22%	9%	-0.5%	nt	?	2%	-14%
O=C1CCC(/C=C/c2ccccc2)=NN1Cc1ccccc1	nt	-13%	1%	nt	?	-7%[46.1 µM]	-7%	nt
Cc1cc(NC(=O)C2CC2)ccc1NC(=O)c1cccs1	nt	?	13%	nt	7%	?	0%	-1%
Cc1ccc(C(=O)CC2(O)C(=O)N(CCc3ccccc3)c3ccc(Cl)cc32)cc1 (centres undefined)	11%	?	nt	-6.6%	-23%	-16%[46.1 µM]	nt	nt
COC(=O)Cn1ccc(-c2ccc(Cl)cc2)c(C#N)c1=O	nt	14%[46.1 µM]	9%	nt	-4%	4%[46.1 µM]	0%	0%
CC(C)NC(=O)COc1coc(CN2CCN(c3cccc(Cl)c3)CC2)cc1=O	nt	nt	-3%	nt	-18%	nt	-4%	-5%
O=C(CSc1nnc(-c2ccccc2F)n1C1CC1)Nc1ccc2[nH]c(=O)[nH]c2c1	nt	nt	13%	nt	-12%	nt	1%	6%
COc1ccc(N(C)S(=O)(=O)c2cccc(C(=O)NC3CCCC3)c2)cc1	nt	?	9%	nt	-25%	?	0%	nt
CN(C)c1ccc(NC(=O)CSCc2nc3c(nnn3Cc3ccc(F)cc3)c(=O)[nH]2)cc1	-8%	9%	-25%	-4.9%	-15%	7%	5%	6.3µM*
N=c1c(C(=O)NCCc2ccccc2)cc2c(=O)n3ccccc3nc2n1CC1CCCO1 (centres undefined)	nt	2%[46.1 µM]	-4%	nt	-3%	?	2%	-5%
CCOc1ccc(CCNC(=O)c2cc3c(=O)oc4ccc(C)cc4c3s2)cc1OCC	0%	9%[46.1 µM]	nt	1.4%	1%	13%[46.1 µM]	nt	nt
Cc1cccc(CC2C(=O)Nc3ccccc32)c1 (centres undefined)	5%	6%[46.1 µM]	nt	-4.5%	-4%	?	nt	nt
COC(=O)C1=C(N)Oc2c(c(=O)oc3ccccc23)C1c1cccnc1 (centres undefined)	-2%	11%	-3%	-4.0%	-26%	0%	6%	9%
CCCCN1C[C@H](Cc2ccccc2)[C@@H](CC(=O)Nc2ccccc2)C1=O	nt	nt	1%	nt	22%	nt	7%	-14%
Cc1cc(C)c(C(=O)OCCNC(=O)c2cccnc2)cc1C	7%	-7%	-1%	8.0%	-18%	-23%	-10%	-32%
COC(=O)c1ccc2c(=O)n(CCCCCC(=O)N3CCN(c4cccc(C)c4C)CC3)c(=O)[nH]c2c1	-16%	1%[46.1 µM]	nt	1.3%	-21%	nt	nt	nt
C/C(=C\C(=O)c1ccc(Br)cc1)NNC(=O)c1ccc(O)cc1	nt	nt	5%	nt	1%	nt	5%	14%
Cc1ccc(C(=O)N2CCC(C(=O)c3c(C)cc(C)cc3C)CC2)cc1	nt	nt	-6%	nt	?	nt	-2%	-44%
Oc1ccc2c(c1)oc1cc(O)ccc12	-17%	?	16%	1.6%	61%[activator]	-23%	-2%	-42%
CCCCOC(=O)C1=C(C)Nc2ncnn2C1c1ccc(OC)c(OC)c1 (centres undefined)	2%	-4%	25%	-2.0%	-30%	-14%	-5%	-3%
O=C(CSc1ncnc2nc[nH]c12)N1CCOCC1	9%	15%	-12%	3.5%	-20%	3%	2%	7%
COc1ccc(NC(=O)c2ccccc2N2C(=O)C3C4C=CC(C5CC45)C3C2=O)c(OC)c1 (centres undefined)	nt	nt	7%	nt	1%	nt	0%	10%
COc1ccccc1N(C)S(=O)(=O)c1ccc(C(=O)NNC(=O)c2ccccc2O)cc1	nt	-19%[46.1 µM]	27%	nt	6%	-21%	-2%	nt
COc1ccc(NC(=O)CN2CCN(c3nc(-c4ccc(F)cc4)cs3)CC2)c(OC)c1	nt	9%	3%	nt	-28%	-24%[46.1 µM]	0%	17%
CCC(C)c1ccc(S(=O)(=O)Nc2cccnc2)cc1 (centres undefined)	nt	nt	19%	nt	-3%	nt	-3%	-4%
O=C(O)c1ccc(/C=C/C(=O)c2ccc3c(c2)OCCCO3)cc1	nt	?	3%	nt	10µM*	?	-4%	-3%
COc1ccccc1NC(=O)CSc1nnc(C)o1	3%	-3%	7%	4.7%	-5%	?	10%	-3%
CC(=O)N(Cc1cc2cc(C)c(C)cc2n2nnnc12)CC1COCCO1 (centres undefined)	5%	20%	18%	0.3%	13%	-2%	-6%	-8%
FC(F)(F)c1cccc(N2CCN(CC3CC4C=CC3C4)CC2)c1 (centres undefined)	3%	16%	-22%	-1.6%	nt	-8%	-2%	2%
CCOC(=O)c1ccc(Nc2nc3ccc(C(=O)c4ccccc4)cc3n3c(C)nnc23)cc1	-12%	8%[46.1 µM]	nt	-0.3%	-10%	-19%[46.1 µM]	nt	nt
Cc1ccc(-n2c3c(c(=O)[nH]c2=O)C(NC(=O)C(C)(C)C)(C(F)(F)F)C(=O)N3)cc1 (centres undefined)	10%	-9%[46.1 µM]	nt	-1.0%	6%	22%[46.1 µM]	nt	nt
Clc1ccc(SCCCCn2cncn2)cc1	-4%	7%	-8%	-0.9%	7%	-25%	-5%	-39%
O=C(CC1Sc2ccccc2NC1=O)NCc1ccccc1 (centres undefined)	nt	-22%[46.1 µM]	6%	nt	-2%	0%[46.1 µM]	1%	-9%
CCC(=O)N(C)/C=C1\Sc2ccccc2C1=O	-13%	6%	-5%	1.0%	20%	-4%	-18%	-93%
CC(=O)NC1(C(F)(F)F)NC(=O)N(CCc2ccccc2)C1=O (centres undefined)	nt	nt	12%	nt	5%	nt	1%	2%
Cc1ccc(S(=O)(=O)N(C)Cc2nc(-c3ccccn3)no2)cc1	5%	9%	?	1.1%	13%	10%&-3%	2%	-5%
O=C(CCCN1C(=O)/C(=C\c2ccccc2)SC1=S)Nc1ccc(C(=O)O)cc1	nt	9%[46.1 µM]	6%	nt	15%	4%[46.1 µM]	0%	-3%
Cc1onc(C(=O)Nc2cccc(C(F)(F)F)c2)c1[N+](=O)[O-]	nt	nt	-11%	nt	-25%	nt	-7%	-7%
O=C(Nc1ccccc1)c1cccc(N2C(=O)C3C4C=CC(C5CC45)C3C2=O)c1 (centres undefined)	nt	?	15%	nt	-23%	?	-2%	12%
O=S(=O)(Nc1ccc(-c2ccc(N3CCCCCC3)nn2)cc1)c1cccc(C(F)(F)F)c1	8%	-19%[46.1 µM]	nt	-0.5%	20%	nt	nt	nt
Cc1ccccc1Cn1c2ccccc2c2cnn(CC(=O)NCCCN3CCN(C)CC3)c(=O)c21	nt	nt	-3%	nt	-19%	nt	-3%	14%
CC(C)COc1cccc(C(=O)Nc2ccc(-c3nc4ncccc4o3)cc2)c1	4%	-15%[46.1 µM]	nt	0.2%	-17%	nt	nt	nt
Cc1ccccc1NC(c1cccc(Cl)c1)c1nnnn1C1CCCCC1 (centres undefined)	-3%	8%	-5%	-3.3%	1%	1%	14%	-12%
C=CCNC(=O)c1ccc(NC(=O)C2=CSCCO2)cc1	nt	nt	-9%	nt	0%	nt	-4%	-6%
CCOc1ccc(NC(=O)CNC(=O)c2ccc([N+](=O)[O-])cc2)cc1	nt	0%	14%	nt	6%	-24%	0%	nt
COc1cc(OC)cc(-c2nc3ccccc3c(=O)n2OC(=O)c2ccc(C)c(C)c2)c1	?	?	-22%	-4.3%	?	11µM*	26%	-2%
C/C(=N\NC(=O)OC(C)(C)C)c1cccc([N+](=O)[O-])c1	-2%	22%	-19%	-3.5%	22%	?	1%	-1%
CCOC(=O)C1C(=O)C=C(C)C(C(=O)OCC)C1c1cccc([N+](=O)[O-])c1 (centres undefined)	nt	12%	3%	nt	-23%	1%	-2%	20%
CC(=O)Oc1ccccc1C(=O)Oc1ccc(/C=N/n2cnnc2)cc1	-2%	0%	-16%	-0.6%	-17%	5%	4%	-20%
O=C(NCc1nc(-c2ccc(C(F)(F)F)cc2)no1)c1cccs1	nt	nt	-12%	nt	-6%	nt	-8%	3%
O=C1CC(C(=O)O)(c2ccccc2)c2cccc(F)c21 (centres undefined)	nt	20%	20%	nt	-8%	-1%	-1%	4%
CCCCOC(=O)C1CCC[C@@H](C)N1 (some centres undefined)	2%	?	6%	3.7%	1%	9%[46.1 µM]	-2%	5%
